# FGF22 binding = binders of recombinant human FGF22 by thermal shift. actives 1.5% (n = 340,000). SYPRO orange fluorescence; percent of sucrose octasulfate shift, DMSO zero. calls only at 9.99 µM;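 active means melting point raised past a set limit in the mean and every replicate; three in four hits are not shown here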
# Target sequence (Q9HCT0 whole entry, looked up): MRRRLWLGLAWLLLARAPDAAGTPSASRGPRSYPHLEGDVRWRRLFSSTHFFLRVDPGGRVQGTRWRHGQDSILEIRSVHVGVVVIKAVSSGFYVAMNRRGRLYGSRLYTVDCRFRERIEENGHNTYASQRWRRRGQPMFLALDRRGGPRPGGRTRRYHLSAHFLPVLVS
# Calls only; i = inactive. These rows are one share of the data; count on the stated rates, not on these rows.
COc1cccc(CN2[C@@H]3CNC[C@H]2C3c2ccc(/C=C/c3ccccc3)cc2)c1 (some centres not stated)
  FGF22 binding: i

O=C(C[C@H]1CC[C@@H]2[C@H](COC[C@@H](O)CN2S(=O)(=O)c2cccc(F)c2)O1)Nc1ccccc1
  FGF22 binding: i

CN1c2ccc(-c3ccc(F)cc3)cc2[C@H]2[C@H](CCN2C(=O)c2cccnc2)[C@@H]1CO
  FGF22 binding: i

COCCN=C1Sc2ccccc2[C@@H]2C[C@H]3[C@H](CON3C)CN12
  FGF22 binding: i

COCC(=O)Nc1ccc2c(c1)C(=O)N(C)[C@@H]1CC[C@H](CC(=O)O)O[C@H]1CO2
  FGF22 binding: i

C[C@@H]1CCCCO[C@@H](CN(C)Cc2ccc(C(F)(F)F)cc2)[C@@H](C)CN([C@@H](C)CO)C(=O)c2cc(NC(=O)Nc3cccc4ccccc34)ccc2O1
  FGF22 binding: i

C[C@@H]1CCCCO[C@@H](CN(C)Cc2ccccc2)[C@@H](C)CN([C@@H](C)CO)C(=O)c2cc(NC(=O)c3ccccc3)ccc2O1
  FGF22 binding: i

O=C(Nc1ccccc1)Nc1ccc2c(c1)[C@H]1C[C@@H](CC(=O)N3CCOCC3)O[C@H](CO)[C@H]1O2
  FGF22 binding: i

C[C@@H]1CCCCO[C@H](CN(C)S(=O)(=O)c2ccc(Cl)cc2)[C@@H](C)CN([C@H](C)CO)C(=O)c2cc(NC(=O)Nc3ccc(C(F)(F)F)cc3)ccc2O1
  FGF22 binding: i

O=C(N[C@H](Cc1ccccc1)C(=O)NCCCN1CCCC1=O)[C@H]1O[C@@H](n2ccc(=O)[nH]c2=O)[C@H](O)[C@@H]1O
  FGF22 binding: i

# Shown with values ahead of the structure: six of the compounds above.
FGF22 binding,compound
i,O=C(N[C@H](Cc1ccccc1)C(=O)NCCCN1CCCC1=O)[C@H]1O[C@@H](n2ccc(=O)[nH]c2=O)[C@H](O)[C@@H]1O
i,C[C@@H]1CCCCO[C@@H](CN(C)Cc2ccccc2)[C@@H](C)CN([C@@H](C)CO)C(=O)c2cc(NC(=O)c3ccccc3)ccc2O1
i,COc1cccc(CN2[C@@H]3CNC[C@H]2C3c2ccc(/C=C/c3ccccc3)cc2)c1 (some centres not stated)
i,COCC(=O)Nc1ccc2c(c1)C(=O)N(C)[C@@H]1CC[C@H](CC(=O)O)O[C@H]1CO2
i,O=C(C[C@H]1CC[C@@H]2[C@H](COC[C@@H](O)CN2S(=O)(=O)c2cccc(F)c2)O1)Nc1ccccc1
i,C[C@@H]1CCCCO[C@@H](CN(C)Cc2ccc(C(F)(F)F)cc2)[C@@H](C)CN([C@@H](C)CO)C(=O)c2cc(NC(=O)Nc3cccc4ccccc34)ccc2O1

# Further records.
C[C@@H]1CN([C@@H](C)CO)C(=O)c2cc(NC(=O)CCC(F)(F)F)ccc2O[C@@H](C)CCCCO[C@H]1CN(C)CC1CCCCC1
  FGF22 binding: i

CC=Cc1ccc2n(c1=O)C[C@H]1[C@H](CO)[C@@H](C(=O)N3CCCCC3)N(Cc3ccccc3OC)[C@@H]21 (mixture of isomers)
  FGF22 binding: i

COc1ccc2c3c(n(C)c2c1)[C@@H](CO)N(CC1CC1)CC31CN(C(=O)Nc2ccc(F)cc2F)C1
  FGF22 binding: i

C=CCN1C(=O)c2n[nH]c(COC)c2C1c1ccc2c(c1)OCO2 (configuration not stated)
  FGF22 binding: i

COc1ccc(C#Cc2ccc3c(c2)[C@H]2[C@H](CCN2C(=O)c2ccncc2)[C@H](CO)N3)cc1
  FGF22 binding: i

CCC(=O)N1CC[C@H]2[C@H](CO)Nc3ccc(-c4cccc(C#N)c4)cc3[C@H]21
  FGF22 binding: i

Cc1noc(C)c1S(=O)(=O)N(C)C[C@@H]1OCCCC[C@@H](C)Oc2ccc(NC(=O)CCC(F)(F)F)cc2C(=O)N([C@@H](C)CO)C[C@H]1C
  FGF22 binding: i

C/C=C/c1ccc([C@H]2[C@@H](CO)N[C@@H]2CN(CC(C)C)C(=O)c2ccccn2)cc1
  FGF22 binding: i

Cc1noc(C)c1NC(=O)Nc1ccc2c(c1)CC(=O)N([C@H](C)CO)C[C@H](C)[C@@H](CN(C)C(=O)NC(C)C)O2
  FGF22 binding: i

NC(=O)c1ncn([C@@H]2O[C@H](C(=O)N3CCCN(Cc4ccccc4F)CC3)[C@@H](O)[C@H]2O)n1
  FGF22 binding: i

COc1ccccc1-c1cccc2[nH]c3c(c12)CCN1C(=O)[C@H]2[C@H](C)ON(C)[C@H]2C[C@@H]31
  FGF22 binding: i

CCc1c(-c2ccccc2)ncn1CCc1ccccc1OC
  FGF22 binding: i

C[C@@H]1CCCCO[C@@H](CN(C)C)[C@H](C)CN([C@H](C)CO)C(=O)c2cc(NS(=O)(=O)c3ccccc3)ccc2O1
  FGF22 binding: i

COCC(=O)Nc1ccc2c(c1)[C@H]1C[C@H](CC(=O)OC)O[C@@H](CO)[C@H]1O2
  FGF22 binding: i

C[C@@H]1CCCCO[C@H](CN(C)S(=O)(=O)c2cn(C)cn2)[C@@H](C)CN([C@H](C)CO)C(=O)c2cc(NC(=O)Cc3ccccc3)ccc2O1
  FGF22 binding: i

CCCNC(=O)C[C@@H]1C[C@H]2c3cc(NC(=O)Cc4ccncc4)ccc3O[C@H]2[C@H](CO)O1
  FGF22 binding: i

CNC[C@H]1OCCCC[C@H](C)Oc2ccc(NS(=O)(=O)c3c(C)noc3C)cc2C(=O)N([C@@H](C)CO)C[C@@H]1C
  FGF22 binding: i

COc1cccc(C(=O)N[C@H](C(=O)N2CCC[C@H]2C(=O)NCCc2ccccc2Cl)C(C)C)c1
  FGF22 binding: i

COc1ccccc1CNC(=O)C[C@@H]1CC[C@@H]2[C@H](COC[C@@H](O)CN2Cc2cccc(-c3ccncc3)c2)O1
  FGF22 binding: i

C[C@H]1CN([C@@H](C)CO)C(=O)Cc2cc(NS(=O)(=O)c3cccs3)ccc2O[C@H]1CN(C)C(=O)Nc1cccc2ccccc12
  FGF22 binding: i

COc1ccccc1S(=O)(=O)N1CC[C@@H]2[C@H]1c1cc(Br)ccc1N[C@@H]2CO
  FGF22 binding: i

C[C@@H]1CN([C@H](C)CO)C(=O)c2cc(NC(=O)NC3CCCCC3)ccc2O[C@@H](C)CCCCO[C@H]1CN(C)C(=O)Nc1ccc2c(c1)OCO2
  FGF22 binding: i

Nc1[nH]c(C(=O)c2ccccc2)c(-c2ccccc2Br)c1C(=O)c1cccs1
  FGF22 binding: i

Cc1ccccc1-c1ccc([C@H]2[C@H](CO)N3CCCCN(S(=O)(=O)c4ccc(F)cc4)C[C@@H]23)cc1
  FGF22 binding: i

O=C(Nc1ccc2c(c1)[C@H]1C[C@H](CC(=O)N3CCOCC3)O[C@H](CO)[C@H]1O2)c1ccc2c(c1)OCO2
  FGF22 binding: i

COc1ccc(CCN2CC(=O)N3CCc4ccc(N5CCOCC5)cc4C3CC2=O)cc1OC (configuration not stated)
  FGF22 binding: i

COc1ccc(S(=O)(=O)Nc2ccc3c(c2)CC(=O)N([C@H](C)CO)C[C@H](C)[C@@H](CN(C)S(=O)(=O)c2ccccc2)O3)cc1
  FGF22 binding: i

C[C@H](CO)N1C[C@H](C)[C@@H](CN(C)CC2CC2)OCCCC[C@H](C)Oc2ccc(NC(=O)CCCCCC(=O)Nc3ccccc3N)cc2C1=O
  FGF22 binding: i

Nc1ncnc2c1ncn2[C@@H]1O[C@H](C(=O)N[C@@H](CCc2ccccc2)C(=O)N2CCCN(Cc3cccs3)CC2)[C@@H](O)[C@H]1O
  FGF22 binding: i

CC(=O)N1C[C@@H]2[C@H](c3ccccc31)[C@H](CO)N2Cc1ccc(Cl)cc1
  FGF22 binding: i

C[C@@H]1CCCCO[C@@H](CN(C)S(=O)(=O)c2ccc(F)cc2)[C@@H](C)CN([C@H](C)CO)C(=O)c2cc(NC(=O)Nc3ccc(F)cc3)ccc2O1
  FGF22 binding: i

C[C@@H]1CCCCO[C@@H](CN(C)Cc2ccc(C(F)(F)F)cc2)[C@H](C)CN([C@@H](C)CO)C(=O)c2cc(NC(=O)Cc3ccccc3)ccc2O1
  FGF22 binding: i

CCCNC(=O)Nc1ccc2c(c1)C(=O)N(C)[C@H]1CC[C@H](CC(=O)NC)O[C@H]1CO2
  FGF22 binding: i

N#Cc1cccc(-c2ccc3c(c2)[C@H]2[C@H](CCN2C(=O)c2ccncc2)[C@@H](CO)N3)c1
  FGF22 binding: i

C[C@@H]1CN([C@@H](C)CO)C(=O)c2cc(C#Cc3cccnc3)cnc2O[C@@H]1CN(C)Cc1ccncc1
  FGF22 binding: i

Cc1noc(C)c1NC(=O)Nc1ccc2c(c1)C(=O)N([C@@H](C)CO)C[C@H](C)[C@H](CN(C)Cc1ccc(C(=O)O)cc1)OCCCC[C@@H](C)O2
  FGF22 binding: i

CCCNC(=O)C[C@@H]1C[C@@H]2c3cc(NS(=O)(=O)c4ccccc4)ccc3O[C@@H]2[C@H](CO)O1
  FGF22 binding: i

C[C@@H]1CCCCO[C@@H](CN(C)Cc2ccc(C(F)(F)F)cc2)[C@@H](C)CN([C@@H](C)CO)C(=O)c2cc(NS(C)(=O)=O)ccc2O1
  FGF22 binding: i

C[C@@H]1CCCCO[C@@H](CN(C)Cc2ccc3c(c2)OCO3)[C@@H](C)CN([C@H](C)CO)C(=O)c2cc(NC(=O)c3ccncc3)ccc2O1
  FGF22 binding: i

CCCNC(=O)C[C@@H]1C[C@@H]2c3cc(NC(=O)CN(C)C)ccc3O[C@@H]2[C@@H](CO)O1
  FGF22 binding: i

COc1ccc2ccccc2c1CN1CCN(c2ncc(Cc3ccccc3)cn2)CC1
  FGF22 binding: i

O=C(C[C@@H]1C[C@H]2c3cc(NC(=O)NC4CCCC4)ccc3O[C@H]2[C@H](CO)O1)NCc1cc(F)ccc1F
  FGF22 binding: i

CCNC(=O)N1CCN(c2ccc(N3CCN(C(=O)NCC)[C@@H](C)C3)c(C)c2)[C@H](C)C1
  FGF22 binding: i

Cc1ccccc1S(=O)(=O)N1CC[C@H]2[C@H](CO)Nc3ccc(-c4ccc(F)cc4)cc3[C@H]21
  FGF22 binding: i

COCc1cc(N2CCN(C(=O)OC(C)(C)C)C[C@H]2C)ccc1N1CC[C@@H](O)C1
  FGF22 binding: i

COC(=O)C[C@H]1CC[C@@H]2[C@@H](COc3ccc(NC(=O)c4ccccc4OC)cc3C(=O)N2C)O1
  FGF22 binding: i

COc1ccc(-c2cc(NC(=O)Cc3c[nH]c4ccccc34)ccc2N(C)c2cccnc2)cc1F
  FGF22 binding: i

N#Cc1ccc(-c2ccc(C3[C@@H]4CN(C(=O)Cc5ccccc5)C[C@H]3N4)cc2)cc1 (some centres not stated)
  FGF22 binding: i

COc1ccc(NC(=O)Nc2ccc3c(c2)CC(=O)N([C@H](C)CO)C[C@@H](C)[C@H](CN(C)C(=O)Nc2cccc4ccccc24)O3)cc1
  FGF22 binding: i

COCCNC(=O)C[C@@H]1CC[C@H]2[C@@H](COC[C@@H](O)CN2Cc2ccc(Cl)c(Cl)c2)O1
  FGF22 binding: i

# 2 entries drawn at random from the list so far:
COc1ccc(NC(=O)Nc2ccc3c(c2)CC(=O)N([C@H](C)CO)C[C@@H](C)[C@H](CN(C)C(=O)Nc2cccc4ccccc24)O3)cc1
  FGF22 binding: i

COCCNC(=O)C[C@@H]1CC[C@H]2[C@@H](COC[C@@H](O)CN2Cc2ccc(Cl)c(Cl)c2)O1
  FGF22 binding: i

# The results go on.
CCCC(=O)Nc1ccc2c(c1)C(=O)N(C)[C@@H]1CC[C@@H](CC(=O)NCC(F)(F)F)O[C@@H]1CO2
  FGF22 binding: i

CC(=O)N1C[C@H]2CON(C)[C@H]2C[C@H]1c1ccccc1-c1ccccc1
  FGF22 binding: i

COCC(=O)Nc1ccc2c(c1)[C@H]1C[C@@H](CC(=O)NCc3cc(F)ccc3F)O[C@H](CO)[C@H]1O2
  FGF22 binding: i

COc1ccc(S(=O)(=O)Nc2ccc3c(c2)C(=O)N([C@H](C)CO)C[C@H](C)[C@@H](CN(C)CC2CCCCC2)OCCCC[C@@H](C)O3)cc1
  FGF22 binding: i

Cc1[nH]c2ccccc2c1CC(=O)Nc1ccc(Nc2cccnc2)c(-c2ccc(Cl)c(Cl)c2)c1
  FGF22 binding: i

COC(=O)C[C@@H]1CC[C@@H]2[C@@H](COc3ccc(NC(=O)c4ccccc4OC)cc3C(=O)N2C)O1
  FGF22 binding: i

COC(=O)C1=C(C)N(Cc2ccccc2)C(=S)NC1c1ccc(Cl)cc1 (configuration not stated)
  FGF22 binding: i

Cc1noc(C)c1NC(=O)N(C)C[C@@H]1OCCCC[C@@H](C)Oc2ccc(NC(=O)Nc3ccccc3)cc2C(=O)N([C@@H](C)CO)C[C@H]1C
  FGF22 binding: i

C[C@@H]1CCCCO[C@@H](CN(C)CC2CCCCC2)[C@H](C)CN([C@H](C)CO)C(=O)c2cc(NS(=O)(=O)c3ccc(Cl)cc3)ccc2O1
  FGF22 binding: i

O=C(C[C@H]1CC[C@H]2[C@@H](COC[C@@H](O)CN2CC2CCCCC2)O1)NCc1ccc(F)cc1
  FGF22 binding: i

C[C@H]1CN([C@@H](C)CO)C(=O)Cc2cc(NC(=O)NC3CCCCC3)ccc2O[C@@H]1CN(C)Cc1ccncc1
  FGF22 binding: i

COc1ccc(NC(=O)Nc2ccc3c(c2)C(=O)N([C@@H](C)CO)C[C@H](C)[C@@H](CN(C)S(=O)(=O)c2c(C)noc2C)OCCCC[C@H](C)O3)cc1
  FGF22 binding: i

Cc1cc(C)cc(NC(=O)Nc2ccc3c(c2)C(=O)N(C)[C@H]2CC[C@H](CC(=O)O)O[C@H]2CO3)c1
  FGF22 binding: i

C[C@@H]1CCCCO[C@@H](CN(C)S(=O)(=O)c2cccs2)[C@@H](C)CN([C@@H](C)CO)C(=O)c2cc(NC(=O)Nc3cccc4ccccc34)ccc2O1
  FGF22 binding: i

CNC[C@H]1Oc2ccc(NC(=O)c3ccncc3)cc2CC(=O)N([C@@H](C)CO)C[C@@H]1C
  FGF22 binding: i

O=C(C[C@H]1CC[C@H]2[C@@H](COC[C@@H](O)CN2C(=O)c2ccccc2F)O1)NCc1ccc(Cl)c(Cl)c1
  FGF22 binding: i

COc1ccc(S(=O)(=O)Nc2ccc3c(c2)C(=O)N([C@@H](C)CO)C[C@H](C)[C@@H](CN(C)S(=O)(=O)c2ccccc2)OCCCC[C@@H](C)O3)cc1
  FGF22 binding: i

CN(C)C(=O)c1ccc(-c2ccc3c(c2)[C@@H]2[C@@H](CCN2C(=O)c2ccccc2F)[C@@H](CO)N3)cc1
  FGF22 binding: i

O=C(Nc1cc(F)ccc1F)N1CCCCN2[C@H](CO)[C@H](c3ccc(-c4cccnc4)cc3)[C@H]2C1
  FGF22 binding: i

# Source: PubChem
